NPYLR7 ag: activates Aedes aegypti NPYLR7 receptor. HEK293T NPYLR7/Galpha15, GCaMP6s calcium fluorescence. activation, % at 10 µM. actives 0.15% (n = 270,000). AID 1259423; in the data active = activation above about 40%;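 note: 0% = vehicle and 100% = reference agonist at the receptor; some compounds past the cut are filed as inactive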
NPYLR7 ag max-min: second read-out of NPYLR7 ag, no call of its own (marks repeat the call); activation, %; measured here: Max-Min RFU normalised activation; some inactives read as strong as hits;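 span of the calcium signal over five minutes; 0% = vehicle and 100% = native peptide agonist; compound fluorescence can raise it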
* hit, by the source's call; & = joins results of further samples. Not all compounds are listed (hit frequency here may not be typical).

SMILES	NPYLR7 ag	NPYLR7 ag max-min
CC(=O)Nc1cccc(-n2cnnc2SCC(=O)C(C)(C)C)c1	7.8	4.8
CCCCc1ccc(S(=O)(=O)NC(=O)C2(C)CCN2C(=O)CCc2ccccc2)cc1 (stereo not drawn)	-0.7	-0.2
COc1cc(F)c(C(=O)N2CCOC(Cc3ccccc3)C2)c(F)c1 (stereo not drawn)	24.1	30.8
C=CCN(C)C(=O)c1cccc(-c2ccc(O)cc2)c1	7.0	3.6
CN(C)CC1(O)CCN(C(=O)c2cc(-c3ccc(O)cc3)n[nH]2)C1 (stereo not drawn)	14.2	6.3
O=C(CNC(=O)c1cccc(F)c1)N=Nc1c(O)n(Cc2ccccc2)c2ccccc12	2.8	-3.7
CC(C)NC(=O)c1cc2n(n1)CCN(Cc1ccccc1Cl)C2=O	0.3	8.4
Cc1ccc2c(c1)N(C)C(=O)c1cc(NS(=O)(=O)C(C)C)ccc1O2	-1.0	-3.3
N#Cc1nc(COc2ccccc2Cl)oc1N1CCCC1	3.4	-0.4
O=C(c1ccco1)N(Cc1ccc(OCc2nc(CO)cs2)cc1)C1CC1	-1.4	2.3
Nc1ccc(N2CCOCC2)c(S(=O)(=O)Nc2ccc(Cl)cc2)c1	-8.8	-14.7
Cn1nc(NC(=O)c2ccccc2C(F)(F)F)c2c1NC(=O)CC2c1ccco1 (stereo not drawn)	-16.4	-17.9
COCCn1c(SCC(=O)N2CCCC2)nc2c(c1=O)SCC2	-3.5	-4.3
Cc1cc(C)c2c(n1)nn1c(N3CCN(c4ccccc4)CC3)cc(C)nc21	1.1	11.0
CC1CN(C(=O)CCCSc2nnc(-c3ccc(Cl)cc3)n2-c2ccccc2)CCN1C(=O)/C=C/c1ccccc1 (stereo not drawn)	-3.6	-2.4

The closing 3 compounds of the part before come first, to join the parts.
SMILES	NPYLR7 ag	NPYLR7 ag max-min
COCCn1c(SCC(=O)N2CCCC2)nc2c(c1=O)SCC2	-3.5	-4.3
Cc1cc(C)c2c(n1)nn1c(N3CCN(c4ccccc4)CC3)cc(C)nc21	1.1	11.0
CC1CN(C(=O)CCCSc2nnc(-c3ccc(Cl)cc3)n2-c2ccccc2)CCN1C(=O)/C=C/c1ccccc1 (stereo not drawn)	-3.6	-2.4
O[C@@H]1CN(Cc2ccsc2)CC[C@H]1N1CCN(c2ccccc2F)CC1	20.1	10.6
O=S1(=O)CCN2N=C(SCc3ccccc3)SC2=N1	0.7	1.2
CCCc1cc(C(=O)N2CCN3C(=O)CNC(=O)C3C2)ccn1 (stereo not drawn)	1.4	0.1
O=C(c1cc2ccccc2s1)N1C[C@H](Oc2ccccn2)[C@H]2C[C@@H]1CC[C@H]2O	23.5	30.2
COc1ccc(NC(=O)C2CCN(C(=O)CNC(=O)COC3C[C@@H](C)CC[C@@H]3C(C)C)CC2)cc1 (stereo partly drawn)	28.6	22.8
COC(=O)c1cccc2c1CN(C(=O)CN1C(=O)C3SCCN3C(=O)c3ccccc31)CC2 (stereo not drawn)	-0.8	11.6
O=C(NCCN1C(=O)SC(=Cc2cccs2)C1=O)c1ccccn1	-6.5	4.2
Cc1ccc(Cl)cc1NC(=O)CNc1ccc(NC(=O)C2CC2)cc1	3.1	2.8
O=C1CC2(C(=O)N1CCCN1C(=O)c3ccccc3C1=O)C(=O)N(CCCCOc1ccccc1)c1ccc(F)cc12 (stereo not drawn)	-9.3	-15.1
CCCCC(=O)Nc1sc2c(c1-c1nc3ccccc3s1)CCN(C(=O)OCC)C2	6.7	5.6
Cc1ccccc1-n1nc(C)c(-c2ccccc2)c1NC(=O)CN(CC(C)C)S(=O)(=O)c1ccc(C(C)(C)C)cc1	17.6	13.6
COc1cc2c(cc1OC)C(=O)CSC(c1cccs1)N2 (stereo not drawn)	3.8	-1.8
CC1(C(=O)NC2CCC2)CCN1C(=O)C1(c2ccccc2)CCCC1 (stereo not drawn)	14.2	10.5
CC(CCc1ccccc1)NC(=O)c1csc(CSc2nnc(-c3ccccc3Cl)n2-c2ccccc2Cl)n1 (stereo not drawn)	11.3	16.5
COc1ccccc1-n1cc(CN2CCC3(CC2)CC3C(=O)NCCC2=CCCCC2)cn1 (stereo not drawn)	36.2	22.8

Compounds above containing a furan ring, fused or not:
SMILES	NPYLR7 ag	NPYLR7 ag max-min
O=C(c1ccco1)N(Cc1ccc(OCc2nc(CO)cs2)cc1)C1CC1	-1.4	2.3
Cn1nc(NC(=O)c2ccccc2C(F)(F)F)c2c1NC(=O)CC2c1ccco1 (stereo not drawn)	-16.4	-17.9

(listing goes on)
SMILES	NPYLR7 ag	NPYLR7 ag max-min
COc1ccccc1C1CCCN1C(=O)c1ccc(-n2cnnc2)cc1 (stereo not drawn)	3.0	5.6
O=C(CSc1nc2ncccc2c(=O)n1-c1ccccc1)Nc1ccccc1	0.3	17.6
COc1ccc(C2C(C(=O)c3ccco3)=C(O)C(=O)N2CCN2CCOCC2)cc1 (stereo not drawn)	16.9	15.4
CCc1nn2c(N)c(C=C3C=C(Br)C=CC3=O)c(=O)nc2s1	-0.6	0.3
CCCCc1ncc(-c2c(-c3ccccc3)ncn2C2CCNC2)[nH]1 (stereo not drawn)	0.6	0.2
CC(C)(C)C(=O)C=c1[nH]c(=O)c(=Cc2ccc3c(c2)OCO3)s1	5.1	2.4
O=S(=O)(Cc1ccccc1)N(CCCCO)C1CC1	5.2	2.7
O=C(c1scc2c1OCCO2)N1C[C@H]2CC=CC[C@H]2C1	-3.8	-4.6
O=C(NCc1cccnc1)c1csc(-c2cc3ccccc3[nH]2)n1	2.8	2.4
CCc1c(-c2ccncc2)nn(C(=O)c2ccccc2C)c1N	7.0	0.8
COc1ccc(CN2CCNC(=O)C2CC(=O)NCCc2cccnc2)c(OC)c1 (stereo not drawn)	-5.2	-6.6
Cc1cccc(COCC2CN(C(=O)C(C)Oc3cccc(Cl)c3)CCO2)c1 (stereo not drawn)	-2.0	1.2
CC(=O)Nc1ccc(SCC(=O)NC(=O)c2ccccc2Br)cc1	1.6	-2.1
CC(C)CC1(CNC(=O)CS(=O)(=O)C(C)C)CCCC1	0.5	0.5
CCOc1ccccc1-n1c(=O)[nH]c2c(C(N)=O)nc(-c3ccccc3)nc21	10.4	3.3
Nc1nc(CCC(=O)N2CCCC(N3CCC(CO)CC3)C2)cs1 (stereo not drawn)	7.6	0.3
O=C(CCc1cccc(F)c1)Nc1cnc2n1CCCC2	1.0	-0.1
Cc1ccccc1-n1ncc(C(C)NC(=O)CCn2cnnn2)c1C (stereo not drawn)	3.2&7.8	0.3&3.1
O=C1NCCN2CCN(C(=O)C3CCN(c4ncccn4)CC3)CC12 (stereo not drawn)	-6.5	-7.6
Cc1ccc(NC(=O)CC(=O)N2CCCC2c2cc(C(C)C)on2)cc1 (stereo not drawn)	13.7	10.9
c1ccc2sc(CN3CCCC3c3nc4ccccc4s3)nc2c1 (stereo not drawn)	1.5	1.8
Cc1ccc(CN(Cc2ccccc2)C(=O)CN(C(=O)c2ccc(-c3ccccc3)cc2)C(C)C)s1	16.6	18.5
Cc1noc(C(C)C)c1C(=O)NC1CC1c1cccc(F)c1 (stereo not drawn)	-23.9	-25.3
CCOC(=O)C(C(C)=O)C1(C(O)c2ccc(CC)cc2)C(=O)c2ccccc2C1=O (stereo not drawn)	-2.8	-9.6
CC(C)c1nc(SCC(=O)N2CCCCC2C)n[nH]1 (stereo not drawn)	1.6	7.6
Cc1ccc(C(=O)N2CCc3c(c(C(=O)N4CCNC(=O)C4)nn3CCCc3ccccc3)C2)s1	14.9	2.0
O=C(Oc1coc(CSc2ncccn2)cc1=O)c1ccccc1	-20.8	-22.7
Cc1ccc(-c2nc(CN3CCCC(O)C3)co2)cc1 (stereo not drawn)	0.3&-6.9	-1.6&-14.2
O=C(Nc1ccc(-c2noc(-c3ccco3)n2)cc1)c1cccc(Br)c1	-5.1	-3.7
O=C(Nc1cccc(Cc2nc3cc(Cl)ccc3o2)c1)C1CCC1	3.8	-2.9

2 entries from above in a different format:
O=C(NCCN1C(=O)SC(=Cc2cccs2)C1=O)c1ccccn1
  NPYLR7 ag: -6.5
  NPYLR7 ag max-min: 4.2

Cc1ccc(Cl)cc1NC(=O)CNc1ccc(NC(=O)C2CC2)cc1
  NPYLR7 ag: 3.1
  NPYLR7 ag max-min: 2.8

Continued:
SMILES	NPYLR7 ag	NPYLR7 ag max-min
Cn1c(SCc2ccccn2)ncc(C(=O)Nc2ccc(Cl)cc2)c1=O	5.0	-0.7
COc1ccccc1OC1CN(C2CCN(C(=O)c3ccccc3)CC2)C1	7.8	6.4
Fc1ccc(-c2noc3nc(Oc4cccnc4)ccc23)cc1	3.0	0.6
COc1cccc(-c2nnc3ccc(OCCNC(=O)NC4CCCCC4)nn23)c1	-7.2	-7.1
Cc1nnsc1C(=O)N1CCCC(N(C)C)CC1 (stereo not drawn)	13.5	10.1
Cc1oc(C)c(-c2ccccc2)c1C(=O)Nc1ccc(-c2ccccc2)cc1	26.8	12.0
CCOC(=O)c1ccccc1NC(=O)c1sc2cc3c(cc2c1Cl)OCO3	35.1	30.2
CCC(C)NC(=O)c1ccc(CSc2nnc(C)n2-c2cccc(C(F)(F)F)c2)cc1 (stereo not drawn)	15.7	13.8
NS(=O)(=O)c1ccc2c(c1)CCN2CC(=O)Nc1ccc(Cl)cc1	-1.6	2.0
Cc1cc(F)ccc1Oc1cc(N2CCN(C(=O)c3ccccc3C)CC2)ncn1	-9.5	-6.3
CCOC(=O)NCCN1C(=O)SC(=Cc2cccs2)C1=O	-1.3	-6.9
CCc1cc(C(=O)N2CCCC(CCC(=O)Nc3ccc(F)cc3C)C2)n(C)n1 (stereo not drawn)	12.9	8.9
Cc1cc(Cl)ccc1OC(C)c1nnc(SC/C=C/c2ccccc2)o1 (stereo not drawn)	1.8	-2.1
O=C(CN1CCCCCCC1=O)Nc1c(F)cccc1-n1cccn1	5.4	-0.7
COc1ccccc1CNC(=O)CCc1cc2c(n1-c1ccc(C)cc1F)-c1ccccc1OC2	0.8	-0.5

Entries of single compounds, quoted from the list. Order of screens: NPYLR7 ag | NPYLR7 ag max-min
Record of CCOC(=O)NCCN1C(=O)SC(=Cc2cccs2)C1=O : -1.3 | -6.9
Record of Cc1nnsc1C(=O)N1CCCC(N(C)C)CC1 (stereo not drawn) : 13.5 | 10.1

(continued)
SMILES	NPYLR7 ag	NPYLR7 ag max-min
COCCn1cnnc1CNC(=O)c1cc2ccccc2n1C	-1.8	-2.7
CC(C)(C)c1ccc(OCc2ccc(C(=O)OCC#N)cc2)cc1	1.0	6.0
COc1ccc2c(c1)CCc1c(-c3ccc(C(=O)NCCc4ccc(F)cc4)cc3)n[nH]c1-2	18.4	12.6
COc1ccc(C(=O)NCC(C)c2nc3ccccc3n2C(F)F)cc1 (stereo not drawn)	-3.5	-5.0
O=C(NCC1CCCO1)C1COC2(CCN(C(=O)c3ccc(F)cc3)CC2)N1C(=O)c1ccco1 (stereo not drawn)	26.9	35.0
COc1ccccc1C(=O)N1CCN(c2ccc(C)cc2C)C(=O)C1C (stereo not drawn)	19.5	19.3
CC(=O)CC1(O)C(=O)Nc2ccc(I)cc21 (stereo not drawn)	6.7	3.8
CCOC(=O)C(C)n1cnc2c(nnn2Cc2ccccc2F)c1=O (stereo not drawn)	7.4	9.3
Cc1nccc(-c2cccc(N3C(=O)[C@H]4C[C@H]4C3=O)c2)n1	-5.3	-12.0
Cc1ccc(NC(=O)Cn2cccc(-c3nc(-c4ccc(Cl)cc4)no3)c2=O)c(C)c1	1.2	-6.6
COC(=O)C(C)(Cc1ccccc1)NC(=O)c1ccc(-n2nc(-c3cccc(Cl)c3)cc2N)cc1 (stereo not drawn)	-9.7	-14.0
Cc1noc(C)c1C(=O)NCc1ccccc1F	-4.4	-8.6
CCN(CC)C(=O)[C@@H]1C[C@H](N)CN1C(=O)c1c(C)nn2c(C)cc(C)nc12	2.4	0.6
COc1ccc(OC)c(CN2CCCn3cccc3C2c2ccccc2C)c1 (stereo not drawn)	22.2	27.7
CC(CNC(=O)c1cc(Cn2cnc3ccccc32)[nH]n1)N1CCCC1 (stereo not drawn)	12.5	-1.6
COCC(C)Nc1nc(-c2cc(C)sc2C)cs1 (stereo not drawn)	8.7	6.2
CC/C=C(/C)C(=O)N1CCCN(S(=O)(=O)c2ccccc2)CC1	2.5	-0.7
O=C(OCN1C(=O)c2ccccc2C1=O)c1ccccc1	22.0	10.9
CC1CCN(C(=O)NCCCOC2CCOCC2)C1 (stereo not drawn)	1.2	-3.0
CS(=O)(=O)NC1CCN(Cc2ncc[nH]2)CC1	-2.6	-4.5
COc1ccc(C=NNc2nn[nH]n2)cc1OC	10.7	6.8
CCc1ccc(-c2noc(CSc3nnc(-c4ccc5c(c4)OCO5)o3)n2)cc1	2.0	0.9
CC(CNC(=O)Cn1cnc2c(cnn2C)c1=O)c1ccccc1 (stereo not drawn)	15.5	4.1
CCN(CC)CCCn1c2c(c(SCC(=O)Nc3cccc(NC(C)=O)c3)nc1=O)CCC2	0.3	6.1
Cc1csc(C2(NC(=O)c3cc4c(cc3F)NC(=O)CC4)CCCC2)n1	-7.7	241.8
CCCCc1ccc(C(=O)Nc2ccc(C3SCC(=O)N3c3ccc(OC)cc3)cc2)cc1 (stereo not drawn)	10.9	17.5
O=C(O)c1ccccc1N1C(=O)C2CC=CCC2C1=O (stereo not drawn)	-2.8	-4.6
Cn1cnnc1CCNC(=O)c1ccn(-c2ccc(F)cc2)n1	15.8	12.5
CNC(=O)[C@@H]1C[C@@H](N)CN1C(=O)Cc1c[nH]c2ccccc12	-6.2	-10.6
Cc1ccccc1C1c2ccsc2CCN1CC(=O)N1CCCN(C(=O)c2ccc(C(F)(F)F)cc2)CC1 (stereo not drawn)	10.5	1.8
c1c(CN2CCC(Cc3noc(C4CC4)n3)CC2)nn2c1CNCCC2	20.1	20.9
